MARV entry inh: blocks Marburg virus binding to or entry into cells; Marburg virus pseudotyped entry inhibition, cell reporter; control for the full effect not named in the record; about a third of the inactives were read at about 46 µM; Potency, µM (top dose mostly 37.8 µM), for inactives: at the top dose activity change, negative = inhibition, usual class: inhibitors; actives 1.8% (n = 300,000); active = well fitted inhibition curve with a large enough effect; inconclusive = small, poorly fitted or top-dose-only effect, or effect the other way; inactive = flat fitted curve, though single readings scatter; tested in HEK293 cells; about a fifth of its hits are not listed in these tables; also: % is scaled to controls: 0 for no effect and ±100 for the full control effect; luciferase read-out
RE007 growth inh: less growth of the S. pombe RE007 Vpr strain; S. pombe RE007 Vpr strain, BacTiter-Glo ATP luminescence, 24 h; control for the full effect not named in the record; Potency, µM (series often up to 92.2 µM), inactives show top-dose activity change, negative = less growth; actives 0.21% (n = 360,000); AID 651644; active = well fitted falling curve with a large enough effect; inconclusive = small, poorly fitted or top-dose-only effect; inactive = no such curve, though single readings can be large or run the other way;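 also: % is scaled to controls: 0 for no effect and ±100 for the full control effect; nearly all actives have a fitted effect of over 50% in size; the assay follows cell death caused by Vpr and the record does not say whether a fall means rescue or toxicity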
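Fission yeast strain RE007, carrying one chromosomally integrated HIV-1 vpr copy, was seeded at OD 0.01 in PMG+AL medium with 23 nL pinned compound. After 24 h at 30 °C and 99% humidity, viability was read by BacTiter-Glo luminescence.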
SARS PLP yeast: blocks SARS-CoV papain-like protease in a yeast assay. S. cerevisiae expressing SARS-CoV PLpro, growth rescue; control for the full effect not named in the record. Potency, µM (doses to about 32.9 µM), inactives show at the highest dose activity, positive = growth rescue. actives 0.19% (n = 330,000). AID 485353; active means well fitted rising curve with a large enough effect; inconclusive means small, poorly fitted or top-dose-only effect; inactive means no such curve, though single readings can be large or run the other way; also: 0% is about no effect; nearly all actives have a fitted effect of over 55% in size; growth read by luminescence after 48 h
LASV entry inh: Lassa virus entry inhibition | actives 1.2% (n = 300,000) | Potency, µM (titrated, usually from 37.9 µM), without a hit: at the highest dose activity change, negative = inhibition, most hits filed as inhibitors | Lassa virus pseudotype entry inhibition, cell reporter; control for the full effect not named in the record; active means well fitted inhibition curve with a large enough effect; inconclusive means small, poorly fitted or top-dose-only effect, or effect the other way; inactive means flat fitted curve, though single readings scatter; tested in HEK293 cells; also: % is scaled to controls: 0 for no effect and ±100 for the full control effect; nearly all actives have a fitted effect of over 50% in size; luciferase read-out
NS1 function inh: influenza NS1 inhibition. actives 0.4% (n = 270,000). Potency, µM (top dose mostly 46.1 µM), without a hit: top-dose activity, positive = more growth. AID 2326. S. cerevisiae slowed by influenza A NS1, growth recovery by OD600; active means well fitted rising curve with a large enough effect; inconclusive means small, poorly fitted or top-dose-only effect; inactive means no such curve, though single readings can be large or run the other way; also: nearly all actives have a fitted effect of over 50% in size
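Recovery from NS1-induced slow growth read by OD600 in budding yeast switched to galactose assay medium (pH 6.0, -URA) at 1:100 dilution. Compound 23 nl per well; the matching strain lacking NS1 serves as control.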
StopGo reporter: lowers the luciferase signal of an FMDV 2A StopGo reporter | human cells with a luciferase reporter of 2A StopGo recoding; control for the full effect not named in the record | Potency, µM (titrated, usually from 57.9 µM), inactives show at the top dose signal change, negative = less light | actives 1.2% (n = 410,000) | AID 1159524; active = well fitted falling curve with a large enough effect; inconclusive = small, poorly fitted or top-dose-only effect; inactive = no such curve, though single readings can be large or run the other way; tested in HEK293T cells; also: % is scaled to controls: 0 for no effect and ±100 for the full control effect; nearly all actives have a fitted effect of over 45% in size; luciferase light after 4 h
Cruzain noTriton: cruzain (T. cruzi) inhibition without detergent | purified cruzain, Z-FR-AMC fluorescence, no detergent | actives 2.3% (n = 200,000) | Potency, µM, for the others: max response, negative = inhibition, usual class: inhibitors;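 also: plate controls were enzyme without inhibitor for no effect and buffer without enzyme for full effect; nearly all actives have a fitted effect of over 40% in size; top concentration of the series not given in the record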
Target sequence (P25779 123-467 limits assumed): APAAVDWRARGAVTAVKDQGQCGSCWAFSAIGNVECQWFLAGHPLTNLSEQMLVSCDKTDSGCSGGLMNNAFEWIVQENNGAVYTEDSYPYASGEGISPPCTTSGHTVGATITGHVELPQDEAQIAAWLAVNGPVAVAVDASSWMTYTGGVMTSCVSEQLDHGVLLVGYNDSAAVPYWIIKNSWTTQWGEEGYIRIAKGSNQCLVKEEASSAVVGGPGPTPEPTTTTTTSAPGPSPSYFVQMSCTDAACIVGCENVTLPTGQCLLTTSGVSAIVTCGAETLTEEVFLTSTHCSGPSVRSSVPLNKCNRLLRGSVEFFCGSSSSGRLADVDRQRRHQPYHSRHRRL
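Detergent-free condition (0.00005% Triton X-100) in acetate buffer pH 5.5 with DTT. 1.5 nM enzyme and compound were pre-mixed 15 min, then 2 uM Z-FR-AMC substrate added; reaction progress from fluorescence change between first and third reads (60 s).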
Cruzain Triton: cruzain (T. cruzi) inhibition with detergent. purified cruzain, Z-FR-AMC fluorescence, 0.01% Triton. P25779. AID 1478. actives 0.43% (n = 200,000). Potency, µM, inactives show max response, negative = inhibition, usual class: inhibitors;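 also: plate controls were neutral wells for no effect and buffer without enzyme for full effect; nearly all actives have a fitted effect of over 40% in size; top concentration of the series not given in the record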
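Detergent-containing run (0.01% Triton X-100) in acetate buffer pH 5.5 with 5 mM DTT: enzyme at 1.5 nM final, 15 min compound preincubation at room temperature, then 2 uM Z-FR-AMC substrate. Activity taken as 60 s fluorescence increase at 360/450 nm.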
The depositor's hits bear a star; ? = inconclusive; . = not tested or not shown; [ ] = another dose, or the depositor's remark. Unless noted, calls follow the shape of the dose curve; as a rule, active = well fitted curve in the direction sought with a large enough effect; inconclusive = small, poorly fitted or top-dose-only effect, or another doubt; inactive = no such curve, though single readings can be large; an effect the other way counts as inactive or inconclusive. Potency is read from the fitted curve at half-maximal effect.

SMILES	MARV entry inh	RE007 growth inh	SARS PLP yeast	LASV entry inh	NS1 function inh	StopGo reporter	Cruzain noTriton	Cruzain Triton
O=C(c1ccccc1F)N1CCc2ccccc21	3%	?	-3%	-8%	-9%	6%	1%	-0.1%
Cc1ccc(NC(=O)COc2ccc(-n3cnnn3)cc2)cc1C	0%	-11%	15%	?	11%	-22%	?	-1.1%
Cc1cccc2cc(C(c3nnnn3CC3CCCO3)N3CCc4ccccc4C3)c(=O)[nH]c12 (stereo unspecified)	-1%	9%	?	1%	-4%	11%	8%	-2.4%
CCN(CC)CCOC(=O)c1c(C)oc2ccc(O)cc12	13%	11%	1%	18%	3%	16%	-5%	4.8%
CCc1ccc(S(=O)(=O)c2cn(CC(=O)Nc3ccc(C)cc3)c3ccccc3c2=O)cc1	?	.	.	-21%[46.1 µM]	.	-2%	?	-6.1%
CCNc1nc(NCC)n2c(SCC(=O)Nc3ccc(C)c(C)c3)nnc2n1	0%[46.1 µM]	-2%	9%	7%	.	-25%	.	.
Cc1ccccc1NC(=O)c1c(C)oc2ccc(O)c(CN(C)Cc3ccccc3)c12	-19%[46.1 µM]	.	.	?	.	-28%	-26%	-4.8%
O=C(OCc1ccccc1)C1CCCN1C(=O)c1cccs1 (stereo unspecified)	-1%	1%	6%	8%	-10%	13%	-3%	-4.9%
O=C(NCCc1ccccc1)C1CCC(Cn2c(=O)c3ccccc3n(Cc3cccc(Cl)c3)c2=O)CC1 (stereo unspecified)	16%[46.1 µM]	-9%	.	0%	.	19%	.	.
CCCNC(=O)c1ccc(C)c(NC(=O)C2=C(C)OCCS2)c1	4%[46.1 µM]	13%	2%	10%[46.1 µM]	2%	-5%	.	.
CC(C)C(OC(=O)CN1C(=O)COc2ccccc21)C(=O)NC1CCCC1 (stereo unspecified)	?	3%	3%	-1%	-7%	-10%	-1%	6.6%
Cc1nc2cc(NC(=O)NC3CC3)ccc2n1C	29%[46.1 µM]	-4%	0%	-6%	-4%	29%	.	.
C=CCOc1ccc(/C=C/C(=O)OCC(=O)NCCC2=CCCCC2)cc1	-2%	-6%	-5%	?	-2%	-1%	.	.
COc1cccc(N=C2SC(C(=O)Nc3ccccc3F)CC(=O)N2C)c1 (stereo unspecified)	1%	-8%	2%	-9%	-7%	.	6%	0.9%
CC(=O)Nc1cccc(C(=O)NNC(=O)c2ccc(-n3cnnn3)cc2)c1	-22%[46.1 µM]	-14%	2%	8%[46.1 µM]	.	7%	.	.
O=C(COc1ccc(S(=O)(=O)N2CCOCC2)cc1)Nc1ccc(Cl)c(C(F)(F)F)c1	?	16%	0%	?	-24%	.	13%	-3.3%
CC1Cc2ccccc2N1C(=O)c1cnc2sccn2c1=O (stereo unspecified)	.	10%	-1%	.	-2%	3%	-10%	-3.3%
CNC(=O)CSc1nnc(-c2ccco2)n1-c1cccc(OC)c1	.	3%	0%	.	8%	1%	.	.
CCn1ccc(C(=O)Nc2ccc(Cl)cn2)n1	.	-5%	5%	.	-69%	41%[activator]	0%	1.7%
CC(=O)Cn1c2ccccc2n2nc(CCC(=O)O)c(=O)nc12	-3%[46.1 µM]	-22%	1%	0%	8%	7%	.	.
Cc1c(NC(=O)C2CC(c3cccc(Br)c3)=NO2)c(=O)n(-c2ccccc2)n1C (stereo unspecified)	.	-6%	0%	.	2%	3%	.	.
CCN(CC)C(=O)C1CC(=O)OC1(C)C (stereo unspecified)	21%	-8%	10%	0%	3%	17%	2%	3.7%
c1ccc2cc(C3N4CCCN34)ccc2c1 (stereo unspecified)	2%[46.1 µM]	-12%	1%	.	.	30%[activator]	.	.
CN(C)/C=N/c1[nH]ncc1C#N	15%[46.1 µM]	-20%	1%	6%	.	7%	.	.
CCOc1cc2c(cc1OCC)C(CC(=O)O)N(C(=O)Nc1ccc(Br)c(C)c1)CC2 (stereo unspecified)	.	.	.	2%[46.1 µM]	.	16%	?	-11%
N=C1/C(=C\c2ccc(OC(=O)c3ccc(F)cc3)cc2)C(=O)N=C2SC(N3CCCC3)=NN12	.	-5%	-3%	.	-40%	1%	.	.
Cc1cc(C)c(NC(=O)CSc2ccc(-c3sc(-c4ccccc4)nc3C)nn2)c(C)c1	.	.	.	8%[46.1 µM]	.	-1%	-5%	-0.3%
O=C1CCCC2=C1C(c1c(Cl)nc3sccn13)C1=C(CCCC1=O)N2	.	.	4%	.	0%	.	4%	5.7%
COc1ccc(NC(=O)CN2C(=O)C(c3ccc(C)cc3)=NC23CCCCCC3)cc1Cl	?	.	.	-22%[46.1 µM]	.	-1%	-14%	-7.3%
COc1ccc(OCc2cccc(C(=O)NN)c2)cc1	4.1µM*	15%	-6%	?	11%	8.9µM*	5%	-1.6%
CCOc1ccccc1C(=O)N(Cc1ccc(C)o1)C1CCS(=O)(=O)C1 (stereo unspecified)	.	-7%	9%	.	-5%	-22%	.	.
C=CCNc1sc(C(=O)c2ccccc2)c(N)c1C#N	-19%	-15%	6%	-22%	-2%	0%	-7%	-6.4%
CCn1cc(C(=O)OCC(=O)Nc2cccc(C(C)=O)c2)c(=O)c2ccc(C)nc21	12%[46.1 µM]	.	.	-6%[46.1 µM]	.	0%	8%	-1.6%
Cc1ccc(Nc2nc(C)c3c(n2)CC(C)CC3=O)c(C)c1 (stereo unspecified)	-11%[46.1 µM]	9%	-2%	-23%	-2%	-1%	.	.
O=C(NC1CCCC1)C(c1cccs1)N(Cc1ccco1)C(=O)c1csnn1 (stereo unspecified)	8%	-3%	9%	5%	-7%	1%	3%	-4.3%
COc1cc(/C=N\NC(=O)CNC(=O)C(c2ccccc2)c2ccccc2)ccc1O	10%[46.1 µM]	-19%	0%	-2%	1%	-21%	.	.
COc1cc(OC)nc(NC(=O)NS(=O)(=O)c2ccc(F)cc2)n1	2%[46.1 µM]	-4%	0%	0%	.	-18%	.	.
CCCCOCCOCCOCCCC	0%	6%	-10%	.	.	-1%	8%	6.2%
O=c1[nH]c(C2CCCN(S(=O)(=O)c3ccccc3Cl)C2)nc2c1nnn2Cc1ccc(OC(F)(F)F)cc1 (stereo unspecified)	3%[46.1 µM]	.	.	6%[46.1 µM]	.	-14%	-4%	-2.1%
Cc1ccc2nc(NCCCNC(=O)c3cnccn3)c(C#N)cc2c1	-1%	-8%	-1%	-3%	5%	-5%	9%	1.7%
CCOC(=O)c1c(S(=O)(=O)NCC(=O)Nc2cccc(CC)c2)c(C)n(C)c1C	.	.	.	?	.	2%	5%	0.8%
CCc1ccc(NC(=O)CN2C(=O)CCSc3ccc(S(=O)(=O)N4CCCC4)cc32)cc1	.	.	.	14%[46.1 µM]	.	2%	1%	-0.5%
CCn1nc(-c2ccccc2)c(-c2ccccc2)c(C(=O)OCCOC)c1=O	8%[46.1 µM]	.	.	-1%[46.1 µM]	.	-18%	28%	-2.4%
CC(=O)Nc1ccc(OCC(O)Cn2nc(C)c(Br)c2C)cc1 (stereo unspecified)	0%	0%	21%	3%	3%	-9%	-11%	-0.8%
COC(=O)c1ccccc1NC(=O)CN1CCN(c2ccccn2)CC1	?	-24%	1%	7%[46.1 µM]	-2%	?	.	.
O=C(Nc1cc([N+](=O)[O-])ccc1Cl)c1ccc2c(c1)OCO2	?	-8%	-2%	-4%	3%	11%	.	.
CC(=O)Nc1ccc(NC(=O)c2nc(S(=O)(=O)Cc3ccccc3)ncc2Cl)cc1	.	-1%	9%	.	-2%	32µM*	.	.
O=C(Nc1nc(-c2ccc(F)cc2)cs1)C1CCN(C(=O)c2ccc(F)cc2)CC1	11µM*	-6%	1%	-28%[46.1 µM]	.	11µM*	.	.
Cc1ccccc1-c1nnc(CN2CCN(c3cc(Cl)ccc3C)CC2)o1	-23%[46.1 µM]	.	.	3%[46.1 µM]	.	-17%	26%	-4.7%
O=C(Nc1ccnc(-c2cccnc2)n1)c1cccs1	.	-13%	0%	.	0%	-6%	.	.
CCOC(=O)N1CCN(C(=O)c2ccc(C)c(S(=O)(=O)N3CCCCC3)c2)CC1	-4%	3%	3%	-12%	7%	-10%	.	.
Cc1ccc(S(=O)(=O)N2CCC(C(=O)Nc3nnc(C4CCCC4)s3)CC2)cc1	?	8%	12%	-6%	-5%	19%	16%	2.7%
CC(=O)c1ccc(NC(=O)c2cc(C)no2)cc1	?	4%	0%	2%[46.1 µM]	6%	23%	.	.
Cn1c(=O)oc2cc(S(=O)(=O)N3CCC(C(=O)NCC4COc5ccccc5O4)CC3)ccc21 (stereo unspecified)	.	9%	0%	.	-4%	-28%	-29%	2.2%
CN(Cc1ccccc1)C(=O)CN1C(=O)NC(C)(c2ccc(C(C)(C)C)cc2)C1=O (stereo unspecified)	-22%[46.1 µM]	10%	-8%	?	15%	-27%	.	.
O=C(CSCc1ccccc1)N1CCN(c2ccc(F)cc2)CC1	1%	3%	5%	5%	-160%	.	-10%	2.6%
CN(C)CCCOC(=O)c1ccccc1Cl	?	6%	-1%	4%	-6%	-8%	8%	4.6%
CC(=O)Nc1nc2c(c3c1c(=O)oc1ccccc13)CC(C)CC2 (stereo unspecified)	.	.	5%	.	4%	.	0%	-5.2%
CCOC(=O)c1c(NC(=S)Nc2ccccc2)sc2c1CCCCC2	-13%	-15%	12%	-14%	-16%	.	-15%	-4.7%
Cc1ccc2[nH]c(O)c(N=NC(=O)c3ccc(NS(=O)(=O)c4cccs4)cc3)c2c1	.	1%	0%	.	-42%	54%[activator]	.	.
O=C(C1CCC1)N1CCc2cc(S(=O)(=O)Nc3ccc4c(c3)OCCO4)ccc21	-26%	10%	2%	-2%	1%	-20%	0%	-1.4%
Cc1cc(C)n(CCC(=O)N/N=C/c2c(O)ccc3ccccc23)n1	.	4%	-1%	.	-64%	-26%	.	.
COc1ccc(C2Nc3ccccc3C(=O)N2c2ccc(C)cc2)cc1Cn1cc([N+](=O)[O-])cn1 (stereo unspecified)	-25%	8%	4%	?	?	54%[activator]	?	2.1%

Screening data (PubChem)
